NPYLR7 agonist: agonists of mosquito NPYLR7 receptor, primary screen, cell-based, Aedes aegypti, calcium fluorescence, mosquito biting behavior; activation, % at 10 µM; HEK293T NPYLR7/Galpha15, GCaMP6s calcium fluorescence; 270,000 tested, 0.15% active; in the data active means activation above about 40%;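 further: 0% = vehicle and 100% = reference agonist at the receptor; some compounds past the cut are filed as inactive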
NPYLR7 agonist max-min: recorded beside NPYLR7 agonist, whose call it bears; activation, %; measured here: Max-Min RFU normalised activation; some inactives read as strong as hits;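 span of the calcium signal over five minutes; 0% = vehicle and 100% = native peptide agonist; compound fluorescence can raise it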
* hit, by the source's call. Not all compounds are listed. The share of hits here may be higher or lower than overall.

For O=C(CC(=O)N1CC2Cc3cccc(=O)n3C(C2)C1)c1ccccc1 (stereo not given) the results were NPYLR7 agonist -5 and NPYLR7 agonist max-min -8.
COC(=O)c1ccccc1NC(=O)CNc1cc(Cl)ccc1N1CCCC1 was read as NPYLR7 agonist 0 and NPYLR7 agonist max-min -2.
Cn1nc2c(c1NC(=O)Cc1ccc(F)cc1)CCC2 was read as NPYLR7 agonist 25 and NPYLR7 agonist max-min 22.
Screening CCN(CC)C1CCN(CC(=O)N(C)C(C)c2ccc(F)cc2)CC1 (stereo not given) returned NPYLR7 agonist -1 and NPYLR7 agonist max-min -5.
CN(C)c1ccc(-c2nc3cc(NC(=O)c4ccc(Cl)c(Cl)c4)ccc3o2)cc1 was read as NPYLR7 agonist 5 and NPYLR7 agonist max-min 18.
`O=C(O)c1cccnc1C(=O)O` gave NPYLR7 agonist 3 and NPYLR7 agonist max-min -4.
Cc1ccc(-c2cc(NS(=O)(=O)c3c(C)n[nH]c3C)n(C3CCS(=O)(=O)C3)n2)cc1 (stereo not given) was read as NPYLR7 agonist 0 and NPYLR7 agonist max-min -2.
For O=C(c1csc(-c2cccnc2)n1)N1CC[C@H](CO)[C@H](O)C1 the results were NPYLR7 agonist -1 and NPYLR7 agonist max-min -2.
Screening CCNC(=O)CNC(=O)c1c2c(nc3ccc(C)cc13)CCCC2 returned NPYLR7 agonist -5 and NPYLR7 agonist max-min -9.
`O=C(CSc1ccc(-c2ccccc2)nn1)N1CCCC1` gave NPYLR7 agonist -1 and NPYLR7 agonist max-min -3.
Screening O=C(O)/C=C1\CCCc2ccccc2C1O (stereo not given) returned NPYLR7 agonist -10 and NPYLR7 agonist max-min -14.
`CCc1nnc(NC(=O)CSc2nc(=O)n(CCN(CC)CC)c3c2CCC3)s1` gave NPYLR7 agonist -2 and NPYLR7 agonist max-min -7.
For CC(C)(C)c1ccc2oc(CNC(=O)c3cccnc3)nc2c1 the results were NPYLR7 agonist 8 and NPYLR7 agonist max-min 6.
COC(=O)[C@@H]1C[C@@H](N(C)C)CN1C(=O)c1cccnc1N1CCOCC1 was read as NPYLR7 agonist -5 and NPYLR7 agonist max-min -6.
Screening Cc1cnc2c(C(=O)N[C@H]3C[C@H]4C(=O)N(C)CC(=O)N4C3)cnn2c1 returned NPYLR7 agonist 4 and NPYLR7 agonist max-min 0.

Five neighbouring compounds out of the list so far:
CN(C)c1ccc(-c2nc3cc(NC(=O)c4ccc(Cl)c(Cl)c4)ccc3o2)cc1 was read as NPYLR7 agonist 5 and NPYLR7 agonist max-min 18.
`O=C(O)c1cccnc1C(=O)O` gave NPYLR7 agonist 3 and NPYLR7 agonist max-min -4.
Cc1ccc(-c2cc(NS(=O)(=O)c3c(C)n[nH]c3C)n(C3CCS(=O)(=O)C3)n2)cc1 (stereo not given) was read as NPYLR7 agonist 0 and NPYLR7 agonist max-min -2.
For O=C(c1csc(-c2cccnc2)n1)N1CC[C@H](CO)[C@H](O)C1 the results were NPYLR7 agonist -1 and NPYLR7 agonist max-min -2.
Screening CCNC(=O)CNC(=O)c1c2c(nc3ccc(C)cc13)CCCC2 returned NPYLR7 agonist -5 and NPYLR7 agonist max-min -9.

Remaining list, next part
For CCCOc1ccc(F)cc1-c1cc(C(=O)NC2CCCCC2)[nH]n1 the results were NPYLR7 agonist 3 and NPYLR7 agonist max-min 1.
CCCn1cc(S(=O)(=O)c2ccc(OC)cc2)c(=O)c2cc(F)c(N3CCOCC3)cc21 was read as NPYLR7 agonist -13 and NPYLR7 agonist max-min -15.
Screening Cc1cn2c(CO)c(C)nc2s1 returned NPYLR7 agonist 9 and NPYLR7 agonist max-min 14.
Cc1nc(N2CCCC(C(=O)NCC3CC3)C2)c2cc[nH]c2n1 (stereo not given) was read as NPYLR7 agonist -23 and NPYLR7 agonist max-min -22.
For CN1c2ccccc2-c2nc3ccccc3n2C1c1ccco1 (stereo not given) the results were NPYLR7 agonist 2 and NPYLR7 agonist max-min 1.
For CN(C)S(=O)(=O)CCNC(=O)Cn1cc2ccccc2n1 the results were NPYLR7 agonist -1 and NPYLR7 agonist max-min -3.
O=C(Cn1c2ccccc2c(=O)c2ccccc21)NCc1ccc2c(c1)OCO2 was read as NPYLR7 agonist 18 and NPYLR7 agonist max-min 10.
`CCn1c(=O)n(CC(=O)N(C)Cc2ccccc2O)c2ccccc21` gave NPYLR7 agonist -4 and NPYLR7 agonist max-min -5.
O=C(Nc1ccc2c(c1)OCCO2)N1CCN(c2ccc(Nc3ccccn3)nn2)CC1 was read as NPYLR7 agonist 14 and NPYLR7 agonist max-min 7.
`Cc1nc(N[C@H](CO)COCc2ccccc2)c2ccsc2n1` gave NPYLR7 agonist 4 and NPYLR7 agonist max-min 0.
For Cc1[nH]nc(C(N)=O)c1NC(=O)C(C)SCc1ccccc1 (stereo not given) the results were NPYLR7 agonist 8 and NPYLR7 agonist max-min 9.
`CC(C)CN1C(=O)N(C)C2(CCN(Cc3cccn3-c3cccnc3)CC2)C1=O` gave NPYLR7 agonist 16 and NPYLR7 agonist max-min 9.
For CCC(C)(C)NC(=O)c1ccc(-n2nc(-c3ccc(Cl)cc3)cc2N)cc1 the results were NPYLR7 agonist 14 and NPYLR7 agonist max-min 3.
Screening O=C(CSc1nc(Cl)cc(N2CCC3(CC2)OCCO3)n1)N1CCN(Cc2ccccc2)CC1 returned NPYLR7 agonist -6 and NPYLR7 agonist max-min 2.
`Cc1cnc(CNC(=O)CCNC(=O)c2ccccc2F)cn1` gave NPYLR7 agonist 1 and NPYLR7 agonist max-min -4.

Random excerpt: five compounds from above
O=C(Nc1ccc2c(c1)OCCO2)N1CCN(c2ccc(Nc3ccccn3)nn2)CC1 was read as NPYLR7 agonist 14 and NPYLR7 agonist max-min 7.
For O=C(c1csc(-c2cccnc2)n1)N1CC[C@H](CO)[C@H](O)C1 the results were NPYLR7 agonist -1 and NPYLR7 agonist max-min -2.
For CN1c2ccccc2-c2nc3ccccc3n2C1c1ccco1 (stereo not given) the results were NPYLR7 agonist 2 and NPYLR7 agonist max-min 1.
`Cc1nc(N[C@H](CO)COCc2ccccc2)c2ccsc2n1` gave NPYLR7 agonist 4 and NPYLR7 agonist max-min 0.
Screening CCNC(=O)CNC(=O)c1c2c(nc3ccc(C)cc13)CCCC2 returned NPYLR7 agonist -5 and NPYLR7 agonist max-min -9.

(further entries)
`CC(C)(C)OC(=O)Nc1ccc(C(=O)N2CCC2)cc1` gave NPYLR7 agonist 2 and NPYLR7 agonist max-min 0.
For COc1ccc(CCCN(C)CCC(=O)Nc2ccc(C#N)cc2)cc1 the results were NPYLR7 agonist 4 and NPYLR7 agonist max-min 4.
CCc1cc(CNC(=O)CC2C(=O)NCCN2Cc2cccc(OC)c2)on1 (stereo not given) was read as NPYLR7 agonist -1 and NPYLR7 agonist max-min -4.
`CCc1ccccc1NC(=O)N(Cc1cccc(OS(=O)(=O)CC)c1)C(C)CC` (stereo not given) gave NPYLR7 agonist -7 and NPYLR7 agonist max-min 1.
O=C(N1CCCCC1)C(O)(c1ccccc1)c1ccccc1 was read as NPYLR7 agonist 3 and NPYLR7 agonist max-min 3.
`CCOC(=O)CCNC(=O)c1ccc(-c2cc(-c3ccc(N4CCCCC4)cc3)n[nH]2)cc1` gave NPYLR7 agonist 2 and NPYLR7 agonist max-min -2.
CS(=O)(=O)CCCN1CCN(c2ccccc2C#N)CC1 was read as NPYLR7 agonist -1 and NPYLR7 agonist max-min 1.
`CNC(=O)c1ccc(OCc2cccc(F)c2)cc1` gave NPYLR7 agonist -1 and NPYLR7 agonist max-min -4.
Screening CSc1ncccc1C(=O)N1CCc2c([nH]c3ccccc23)C1c1ccccn1 (stereo not given) returned NPYLR7 agonist 18 and NPYLR7 agonist max-min 7.
Screening Cc1ccc(CN(Cc2nc[nH]c2C)C2CC2)s1 returned NPYLR7 agonist 1 and NPYLR7 agonist max-min -5.
For CC1CCCC(C)N1C(=O)COc1ccc(C(=O)NN=Cc2cc(Br)ccc2O)cc1 (stereo not given) the results were NPYLR7 agonist -5 and NPYLR7 agonist max-min -12.
CCn1ccnc1CN(C)C(=O)CCc1nnc(Cc2cccc(C(F)(F)F)c2)o1 was read as NPYLR7 agonist 5 and NPYLR7 agonist max-min 1.
For CC(NC(=O)c1csc(COc2ccc(Cl)cc2)n1)c1ccccc1 (stereo not given) the results were NPYLR7 agonist 8 and NPYLR7 agonist max-min 10.
COc1ccccc1N1CCN(c2ccc(NC(=O)c3ccc4c(c3)OCO4)cc2C(=O)NCc2ccccc2)CC1 was read as NPYLR7 agonist 22 and NPYLR7 agonist max-min 32.
Screening O=C(CCN(c1nc(C2CC2)nc2cc(Cl)ccc12)C1CCCCC1)NC1CC1 returned NPYLR7 agonist 10 and NPYLR7 agonist max-min 20.
NC(=O)COC1CCN(C(C(=O)NC2CC2)c2ccccc2)C1 (stereo not given) was read as NPYLR7 agonist 7 and NPYLR7 agonist max-min 3.
Screening C=Cc1ccc(CN2C(=O)CCC2c2nc(C)no2)cc1 (stereo not given) returned NPYLR7 agonist -1 and NPYLR7 agonist max-min -4.
COc1ccc(CC(=O)NN=Cc2cc(O)c(O)c(OC)c2)cc1OC was read as NPYLR7 agonist 1 and NPYLR7 agonist max-min 0.
CC(C)c1ccc(NC(=O)C2CC23c2ccccc2-c2ccccc23)cc1 (stereo not given) was read as NPYLR7 agonist -11 and NPYLR7 agonist max-min -18.
`CSc1ccccc1C(=O)C1CCCN(Cc2c(C)nn(C(C)C)c2C)C1` (stereo not given) gave NPYLR7 agonist 3 and NPYLR7 agonist max-min 0.
For CCOC(=O)C1=C(C)N(CC)C(=S)NC1c1ccc(NC(=O)Nc2ccc(Cl)cc2)cc1 (stereo not given) the results were NPYLR7 agonist -4 and NPYLR7 agonist max-min 4.
`CNN=Cc1cc(OC)c(O)c(OC)c1` gave NPYLR7 agonist 11 and NPYLR7 agonist max-min 11.
`COCCN=c1scc(-c2cc(OC)ccc2OC)n1N=C1CCc2ccccc21` gave NPYLR7 agonist 4 and NPYLR7 agonist max-min 1.
CCOC(=O)C(CC)Sc1nnc(NC(=O)c2cc(C(F)(F)F)cc(C(F)(F)F)c2)s1 (stereo not given) was read as NPYLR7 agonist 6 and NPYLR7 agonist max-min 8.
`O=C(NCCC12CC3CC(CC(C3)C1)C2)Nc1cn[nH]c1` gave NPYLR7 agonist 5 and NPYLR7 agonist max-min 6.
For CC(C)(C)c1ccc(C(=O)Nc2ccc(N3CCC(Cc4ccccc4)CC3)c(C(=O)N3CCCC3)c2)cc1 the results were NPYLR7 agonist 19 and NPYLR7 agonist max-min 27.
`Cc1c(NCc2cccnc2)cccc1C(=O)NCc1cc(C(C)C)no1` gave NPYLR7 agonist 18 and NPYLR7 agonist max-min 15.
Screening COc1ccc(NC2CCCN(C(=O)c3ccc(Cl)cc3)C2)cc1 (stereo not given) returned NPYLR7 agonist 3 and NPYLR7 agonist max-min 2.
Screening CCCc1cc(N2CCN(C(=O)c3ccco3)CC2)n2c(nc3ccccc32)c1C#N returned NPYLR7 agonist 6 and NPYLR7 agonist max-min 1.
For C=CCOC(CN1CCN(C(=O)c2c(C)noc2C)CC1)c1cccc(N2CCCC2)c1 (stereo not given) the results were NPYLR7 agonist -3 and NPYLR7 agonist max-min 7.

Arranged by molecular weight (falling): 3 of the compounds above.
For CCOC(=O)C1=C(C)N(CC)C(=S)NC1c1ccc(NC(=O)Nc2ccc(Cl)cc2)cc1 (stereo not given) the results were NPYLR7 agonist -4 and NPYLR7 agonist max-min 4.
`CSc1ccccc1C(=O)C1CCCN(Cc2c(C)nn(C(C)C)c2C)C1` (stereo not given) gave NPYLR7 agonist 3 and NPYLR7 agonist max-min 0.
`O=C(NCCC12CC3CC(CC(C3)C1)C2)Nc1cn[nH]c1` gave NPYLR7 agonist 5 and NPYLR7 agonist max-min 6.

Further compounds.
Screening CSc1nnc2c(n1)OC(C(=O)c1ccccc1)Nc1ccccc1-2 (stereo not given) returned NPYLR7 agonist -9 and NPYLR7 agonist max-min -19.
For CC(=O)c1cccc(S(=O)(=O)Nc2ccc3nc(N4CCCC4)sc3c2)c1 the results were NPYLR7 agonist 13 and NPYLR7 agonist max-min 14.
Screening Cc1ccnc(SCc2cc(=O)c(OC(=O)c3cccc(F)c3)co2)n1 returned NPYLR7 agonist -15 and NPYLR7 agonist max-min -10.
`CC(NC(=O)C1Cc2ccccc2S1)c1ccccc1F` (stereo not given) gave NPYLR7 agonist 6 and NPYLR7 agonist max-min 5.
For CNS(=O)(=O)c1ccc(S(=O)(=O)N(C)CCOc2cc(C)cc(C)c2)cc1 the results were NPYLR7 agonist 1 and NPYLR7 agonist max-min -1.
`Cc1cccc(C(=O)Nc2nc(-c3ccc([N+](=O)[O-])cc3)cs2)c1` gave NPYLR7 agonist 1 and NPYLR7 agonist max-min 2.
`O=C(O)c1nn(CCOc2cccc(Cl)c2)c(=O)c2ccccc12` gave NPYLR7 agonist 12 and NPYLR7 agonist max-min 12.
Screening COc1ccc(-c2c(C)nn3c(NC(C)c4ccccc4)cc(C)nc23)cc1OC (stereo not given) returned NPYLR7 agonist -2 and NPYLR7 agonist max-min -4.
Screening CC(NC(=O)c1cccc(N2CCCS2(=O)=O)c1)c1ccccc1Br (stereo not given) returned NPYLR7 agonist -1 and NPYLR7 agonist max-min 2.
Cc1ccccc1N1CCN(C2CCCN(c3ncnc4[nH]ccc34)C2)CC1 (stereo not given) was read as NPYLR7 agonist 19 and NPYLR7 agonist max-min 6.
Screening CN(C)C1(CNC(=O)C2CCN(S(=O)(=O)c3ccc4c(c3)CCCC4)CC2)CCCCCC1 returned NPYLR7 agonist 2 and NPYLR7 agonist max-min 2.
For CCN1CCCC1CN(CC1CCN(CCOC)CC1)C(=O)c1cc(C)n(C)n1 (stereo not given) the results were NPYLR7 agonist 4 and NPYLR7 agonist max-min 2.
`CCn1cc(C(=O)Nc2ccc3c(c2)OCO3)c2nn(-c3ccccc3)c(=O)c-2c1` gave NPYLR7 agonist 7 and NPYLR7 agonist max-min 5.
COc1cccc(CN2CCC(C(=O)NC(c3cnccn3)c3ccccc3C)CC2)c1 (stereo not given) was read as NPYLR7 agonist -8 and NPYLR7 agonist max-min -8.
O=C(CCN1CCCC(CN2CCCCCC2)C1)N1CCOCC1 (stereo not given) was read as NPYLR7 agonist 8 and NPYLR7 agonist max-min 3.

Compound activity deposited in PubChem by Fisher Drug Discovery Resource Center.
